PKD1 kinase inh = blocks activity of human protein kinase D1; Q15139; PKD1 kinase fluorescence polarization assay; inhibition, %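 (about 10 µM by stock and volumes)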; 200,000 tested, 0.056% active;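 active means inhibition of 50% or more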;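 further: controls were vehicle for no effect and a reference inhibitor for full effect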
Target sequence (Q15139 whole entry, looked up): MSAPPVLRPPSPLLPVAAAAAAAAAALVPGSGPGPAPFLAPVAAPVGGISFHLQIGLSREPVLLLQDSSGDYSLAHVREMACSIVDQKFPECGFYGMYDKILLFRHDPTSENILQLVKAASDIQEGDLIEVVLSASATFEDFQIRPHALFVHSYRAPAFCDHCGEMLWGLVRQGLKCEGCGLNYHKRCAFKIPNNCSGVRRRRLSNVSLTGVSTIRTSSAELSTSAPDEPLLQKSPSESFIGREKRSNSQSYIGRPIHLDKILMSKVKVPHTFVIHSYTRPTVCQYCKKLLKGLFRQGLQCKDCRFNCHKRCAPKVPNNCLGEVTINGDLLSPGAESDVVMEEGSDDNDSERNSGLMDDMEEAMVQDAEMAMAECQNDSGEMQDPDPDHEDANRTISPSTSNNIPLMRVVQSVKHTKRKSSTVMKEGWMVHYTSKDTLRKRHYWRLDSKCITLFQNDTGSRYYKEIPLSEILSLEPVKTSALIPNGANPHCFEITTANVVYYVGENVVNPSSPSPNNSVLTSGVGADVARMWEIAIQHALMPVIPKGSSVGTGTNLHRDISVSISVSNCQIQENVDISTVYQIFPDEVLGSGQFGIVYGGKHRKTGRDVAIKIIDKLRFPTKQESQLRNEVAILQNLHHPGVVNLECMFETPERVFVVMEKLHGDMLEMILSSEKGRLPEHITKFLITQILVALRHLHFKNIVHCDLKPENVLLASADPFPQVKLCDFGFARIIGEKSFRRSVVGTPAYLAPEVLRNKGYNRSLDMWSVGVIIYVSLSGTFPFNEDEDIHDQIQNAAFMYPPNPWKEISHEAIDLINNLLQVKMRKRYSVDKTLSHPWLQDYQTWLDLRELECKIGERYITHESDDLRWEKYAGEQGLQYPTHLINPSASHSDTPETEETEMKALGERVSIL
GALR2 ag = GALR2 (human) receptor agonism; GALR2-expressing cells, agonist activation read-out; activation, %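 (tested at 5 µM)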; O43603; 140,000 tested, 0.48% active;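 active means above mean plus 3 SD of all compounds, about 5% in these data, not always enough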;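 further: 0% = vehicle buffer wells and 100% = reference agonist at full effect; tested in CHO reporter cells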
Insulin prom inh = TRM-6 insulin promoter activity inhibition; TRM-6 cells (human fetal islet line), insulin promoter-eGFP reporter, imaging; reporter expression induced with tamoxifen; inhibition, % at 2 µM; 130,000 tested, 0.9% active;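 active means inhibition above the mean plus 3 SD, with well images judged a real hit on visual review, cut at about 60% in these data, passing the limit was not always enough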
HSV replic up = increases HSV replication in cells; HSV replication augmentation in cells, fold increase; maximum fold increase; 220,000 tested, 0.005% active;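 active means peak rise of 1.5-fold or more in the series; tested in PC3 cells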;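 further: first round at 10 µM; read as green reporter fluorescence; hits show the peak of a series up to 25 µM; 1 = signal of infected wells without compound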
RGS16-Gao = regulators of human RGS16-Galphao interaction; 220,000 tested, 0.38% active; binding response (% of control), % at 10 µM; O15492+P09471; bead-based flow cytometry RGS16-Galphao binding, fluorescence; actives lie on both sides;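 active means below 25% or above 175%, edge rows of some plates excepted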;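 further: Galphao activated by GDP with aluminum fluoride before binding; 100% = wells without compound and 0% = beads without RGS; some results beyond the cut were filed as inactive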
Insulin prom inh cell count = recorded beside Insulin prom inh, whose call it bears; normalized cell count, %; measured here: cell count, toxicity; reference of the scale not given here;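 cells exposed to compound for 48 h; stained nuclei by imaging scaled within each plate; lower means fewer cells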
HSV replic up primary fold = also measured in HSV replic up; calls as there; fold increase; compound at 10 µM; measured here: primary screen fold increase 10 uM; tested in PC3 cells;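 GFP signal in the first replicate; 1 = infected wells without compound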
* marks the source's active call; other numbers are inactive results; i = inactive; · = not tested or not shown.

smiles	PKD1 kinase inh	RGS16-Gao	HSV replic up	GALR2 ag	Insulin prom inh	Insulin prom inh cell count	HSV replic up primary fold
COc1ccc(N2C(=O)NC(=O)/C(=C\c3ccccc3[N+](=O)[O-])C2=O)cc1	-3	97	i	·	·	·	1.1
COc1ccc(OCC(=O)N2CCN(C/C=C/c3ccccc3)CC2)cc1	-2	98	i	·	·	·	1
COc1ccc(C(=O)C2CCCN(C3CSCCSC3)C2)c(C)c1 (configuration not stated)	1	112	i	·	·	·	0.96
CN(C)c1ccc(N=Cc2c(O)n(CCC3=CCCCC3)c(=O)[nH]c2=O)cc1	-4	102	i	0.0	21	113	1.2
c1ccc(Cn2ccnc2)cc1	-4	103	i	-1.1	43	126	1.1
CC1(C)CC(=O)C2=C(C1)NC(=O)C21C(C(=O)OC(C)(C)C)=C(N)Oc2ccc(Br)cc21 (configuration not stated)	-7	98	i	-2.4	·	·	1.1
CN(C)P(=O)(NC(=O)c1cccn1C)N(C)C	1	102	i	·	21	140	0.98
COC(=O)C(O)(c1ccc(NC(=S)NC(=O)c2ccccc2)cc1)C(F)(F)F (configuration not stated)	1	102	i	-2.6	·	·	0.9
CC(C)Cc1nnc(NC(=O)CCC(=O)N2CCC3(CC2)OCCO3)s1	·	97	i	·	·	·	1.1
COc1ccc(C2c3c(nc(C)[nH]c3=O)Oc3c2c(=O)oc2ccccc32)cc1 (configuration not stated)	·	97	i	·	·	·	1
Nc1c2c(nc3sc4c(c13)CCCC4)CCCCC2	2	105	i	-1.5	17	115	0.66
CCn1nc(-c2ccccc2)nc2c(=O)n(C)c(=O)nc1-2	6	101	i	3.8	·	·	0.62
CSc1ccc(C(=O)C2CCCN(Cc3cnc(SC)nc3)C2)cc1 (configuration not stated)	4	95	i	·	·	·	1.1
Fc1cccc(CCNCc2ccccn2)c1	4	125	i	-2.9	·	·	1
CC(Oc1ccc(-c2ccccc2)cc1)C(=O)O (configuration not stated)	-4	100	i	-0.4	58	106	0.88
C=CCn1c(O)c(C(C)=Nc2ccc(N(C)C)cc2)c(=O)[nH]c1=O	-5	94	i	-3.4	44	102	0.75
Cc1ccc(OCC(=O)N2CCN(Cc3cccnc3)CC2)cc1	-6	104	i	·	·	·	0.94
O=P(NS(=O)(=O)c1ccccc1)(Oc1ccccc1)Oc1ccccc1	2	99	i	-3.5	·	·	1
NC(N)=N/N=C/c1cn(-c2ccccc2)nc1-c1cccs1	4	111	i	·	-47	98	0.65
Nc1cc2nc3ccccc3nc2cc1N	·	92	i	·	·	·	1.3

A stretch of the results above, for reference:
smiles	PKD1 kinase inh	RGS16-Gao	HSV replic up	GALR2 ag	Insulin prom inh	Insulin prom inh cell count	HSV replic up primary fold
COc1ccc(OCC(=O)N2CCN(C/C=C/c3ccccc3)CC2)cc1	-2	98	i	·	·	·	1
COc1ccc(C(=O)C2CCCN(C3CSCCSC3)C2)c(C)c1 (configuration not stated)	1	112	i	·	·	·	0.96
CN(C)c1ccc(N=Cc2c(O)n(CCC3=CCCCC3)c(=O)[nH]c2=O)cc1	-4	102	i	0.0	21	113	1.2
c1ccc(Cn2ccnc2)cc1	-4	103	i	-1.1	43	126	1.1
CC1(C)CC(=O)C2=C(C1)NC(=O)C21C(C(=O)OC(C)(C)C)=C(N)Oc2ccc(Br)cc21 (configuration not stated)	-7	98	i	-2.4	·	·	1.1
CN(C)P(=O)(NC(=O)c1cccn1C)N(C)C	1	102	i	·	21	140	0.98
COC(=O)C(O)(c1ccc(NC(=S)NC(=O)c2ccccc2)cc1)C(F)(F)F (configuration not stated)	1	102	i	-2.6	·	·	0.9
CC(C)Cc1nnc(NC(=O)CCC(=O)N2CCC3(CC2)OCCO3)s1	·	97	i	·	·	·	1.1
COc1ccc(C2c3c(nc(C)[nH]c3=O)Oc3c2c(=O)oc2ccccc32)cc1 (configuration not stated)	·	97	i	·	·	·	1
Nc1c2c(nc3sc4c(c13)CCCC4)CCCCC2	2	105	i	-1.5	17	115	0.66
CCn1nc(-c2ccccc2)nc2c(=O)n(C)c(=O)nc1-2	6	101	i	3.8	·	·	0.62

Following part:
smiles	PKD1 kinase inh	RGS16-Gao	HSV replic up	GALR2 ag	Insulin prom inh	Insulin prom inh cell count	HSV replic up primary fold
COc1cc(C(=O)Nc2ccc(Br)cc2C(=O)c2ccccc2Cl)cc(OC)c1OC	0	107	i	-0.8	-34	111	0.94
COC(=O)C1C(O)C(C)C(O)C(C)/C=C\C=C(/C)C(=O)Nc2c(C)c(OC(C)=O)c3c(c2O)C(=O)C(C)=C2OCOC(=C23)/C(C)=C/C(C)(O)C(O)C(C)C1O (configuration not stated)	·	110	i	·	·	·	1.1
C=C1CC[C@@]2(O)[C@H]3Cc4ccc(O)c5c4[C@@]2(CCN3CC2CC2)[C@H]1O5	-4	102	i	-0.4	-5	158	0.89
COc1ccc(S(=O)(=O)NC(CC(=O)N2CCC3(CC2)OCCO3)C(C)C)cc1 (configuration not stated)	-7	97	i	-1.6	-38	102	0.69
CC(Cc1ccccc1)NCc1ccccc1O (configuration not stated)	-4	102	i	·	·	·	0.92
Cc1ccc(/C=C2/C(=O)NC(=O)N(CCc3ccc(F)cc3)C2=O)o1	-4	92	i	-2.2	0	107	1.1
O=C1OC(c2ccc(Cl)cc2)=N/C1=C\N1CC2CC(C1)c1cccc(=O)n1C2 (configuration not stated)	·	98	i	·	·	·	0.91
O=c1[nH]c(=O)n(CCc2ccc(F)cc2)c(O)c1C=NCCCn1ccnc1	-8	106	i	-1.4	·	·	1.1
CC1=C(C(=O)OC(C)C)[C@]2(C(=O)N(CC(N)=O)c3ccccc32)C(C#N)=C(N)O1	2	101	i	-2.0	62	59	0.95
CC1CN(CCc2ccccc2)CC(C)O1 (configuration not stated)	-7	98	i	-2.9	70*	109*	1.1
COCCCNC(=O)c1c(NC(=O)c2ccccc2Cl)n(Cc2ccccc2)c2nc3ccccc3nc12	3	103	i	-0.6	-21	67	1.1
Cc1ccnc(-n2c(C)nc3ccccc3c2=O)c1	-7	106	i	-1.9	9	100	0.79
CCOP(=O)(OCC)C(NC(=O)c1ccc(OC)cc1)C(Cl)(Cl)Cl (configuration not stated)	·	103	i	·	·	·	1.2
CC1C(c2cccs2)=[N+]([O-])C(C)(C(=O)c2cccs2)N1O (configuration not stated)	-12	160	i	0.2	·	·	1
COc1ccccc1N1CCN(C(CNC(=O)Oc2ccccc2)c2cccnc2)CC1 (configuration not stated)	-3	92	i	-3.0	64	96	1
NCCCN1CCN(c2ccccc2)CC1	·	100	i	·	·	·	0.93
COC(=O)c1ccc(NC(=O)CSc2nc3ccc(N4C(=O)C5C6C=CC(C6)C5C4=O)cc3s2)cc1 (configuration not stated)	12	101	i	-1.2	·	·	0.81
CCOc1ccc(C(=O)OC2CC3CCC(C2)N3C)cc1 (configuration not stated)	1	113	i	·	·	·	1
CCc1c(C)nc(N)nc1N1N=C1SCC(=O)OC	-6	104	i	·	·	·	1
CC(=O)OC(C)(C)/C=C/C(=O)[C@](C)(O)[C@H]1[C@H](O)C[C@@]2(C)[C@@H]3CC=C4[C@H](C[C@H](O)C(=O)C4(C)C)[C@]3(C)C(=O)C[C@]12C	1	106	i	-2.8	-400	11	0.52
O=c1c2ccccc2nc(CSc2ncnc3nc[nH]c23)n1-c1ccccc1Cl	-10	114	i	0.9	-406	50	0.88
COc1cccc(N=Cc2c(O)n(Cc3ccco3)c(=O)[nH]c2=O)c1	-2	101	i	·	-23	76	0.96
CN(C)c1ccc(NC(=O)CN2C(=O)CN=C(c3ccccc3)c3cc(Cl)ccc32)cc1	-3	102	i	-0.1	·	·	0.72
CC[N+](CC)(CC#CCO)CC#Cc1ccccc1	-8	102	i	·	-33	125	1
N[C@@H](Cc1cc(Br)c(O)c(Br)c1)C(=O)O	0	138	·	0.1	-5	72	·
O=C1/C(=C/c2cccc([N+](=O)[O-])c2)N2CCC1CC2	-7	111	i	-1.1	·	·	0.87
O=C(COc1ccccc1)Nc1ccc(Cl)cc1C(=O)c1ccccc1	0	101	i	0.2	-117	101	0.75
Cc1ccc(CN2C(=O)NC(=O)C3(Cc4c(nc5ccccn5c4=O)N4CCCCCC43)C2=O)cc1 (configuration not stated)	-7	100	i	0.7	·	·	0.94
CCc1ccccc1NC(=O)CNCc1ccccc1	-9	105	i	·	·	·	1.1
Cn1c(O)c(C(=Nc2ccc(F)cc2)c2ccccc2)c(=O)n(C)c1=O	·	103	i	·	·	·	1.1
Cn1c(C(=O)N2CCC3(CC2)OCCO3)cc2c(=O)n(C)c3ccccc3c21	1	96	i	0.1	-55	47	1.2
Cc1ccc(-n2c(O)c(/C=N/N3CCOCC3)c(=O)[nH]c2=S)cc1	-9	103	i	0.1	·	·	1.1
CCCCc1ncc(CN2CCCC(C(=O)c3ccc(SC)cc3)C2)[nH]1 (configuration not stated)	0	100	i	·	·	·	0.92
O=C(c1c[nH]c2ccc(S(=O)(=O)N3CCOCC3)cc2c1=O)N1CCC2(CC1)OCCO2	-1	112	i	·	-75	38	0.75
COc1ccc(CCn2c(O)c(/C=N/N3CCCCC3)c(=O)[nH]c2=O)cc1OC	4	146	i	-1.1	·	·	1.3
COc1cc(OC)c2c(c1)OCC1CON(C)C21 (configuration not stated)	7	102	i	·	8	113	0.99
COc1cc2c(cc1C=O)OCO2	13	106	i	-1.2	·	·	1.1
CN(C)C(=S)SSC(=S)N(C)C	-6	63	i	·	100*	0.0*	0.57
CC(=NCc1cccnc1)c1c(O)n(-c2ccc(Cl)cc2)c(=O)[nH]c1=O	·	113	i	·	·	·	1.2
CN1C(=O)C(=Cc2ccc(N3CCCCCC3)cc2)C(=O)N(C)C1=O	·	97	i	·	·	·	0.96
N=C1c2ccccc2CN1NC(=O)c1ccc(Cl)cc1	17	96	·	-0.4	·	·	·
Cc1c(N=Cc2c(O)n(CCc3ccccc3)c(=O)[nH]c2=O)c(=O)n(-c2ccccc2)n1C	-6	97	i	-1.8	-222	86	0.96
Cc1ccccc1-n1c(-c2ccoc2)nc2ccccc2c1=O	-4	104	i	·	·	·	0.99
CC1C(C)N1CC(O)Cn1ccnc1[N+](=O)[O-] (configuration not stated)	·	100	i	·	·	·	1.2
CCOC(=O)C1CCN(/C=C2/C(=O)NC(=O)N(Cc3ccco3)C2=O)CC1	-10	96	i	-0.5	12	119	1
Brc1ccc2c(c1)C(OC1CN3CCC1CC3)c1ccccc1CS2 (configuration not stated)	-10	106	i	0.7	-22	159	0.53
CCCC12CN3CN(C1)CC(CCC)(C3)C2O (configuration not stated)	-6	98	i	-0.8	·	·	0.87
O=C1NC(=O)N(Cc2ccccc2Cl)C(=O)/C1=C/N1CCOCC1	2	98	i	-2.3	0	127	0.75
Cc1cc(S(=O)(=O)NC(C)C)ccc1OCC(=O)N1CCN(Cc2ccc3c(c2)OCO3)CC1	-11	132	i	-2.1	9	205	0.81
Cc1[nH]c2ccccc2c1C(=O)C(=O)N1CC2CC(C1)c1cccc(=O)n1C2 (configuration not stated)	-10	108	i	·	-33	130	1
Cc1ccc2[nH]c(=S)n(-c3cccnc3)c(=O)c2c1	·	127	i	·	·	·	0.98
CCOC(=O)C1(CCc2ccccc2)CCN(Cc2ccc3c(c2)OCCO3)CC1	2	101	i	·	·	·	1.2
CCC(=NCCCN1CCOCC1)c1c(O)n(Cc2ccccc2)c(=O)[nH]c1=O	-1	101	i	-1.6	-14	71	1.1
CCOC(=O)CC1=C(C(=O)OCC)C2(C(=O)N1CC(=O)OC)C(C#N)=C(N)Oc1ccccc12 (configuration not stated)	-6	101	i	-0.8	-54	94	1.1
COC(=O)C1=C(N)Oc2cc(C)oc(=O)c2C12C(=O)Nc1ccccc12 (configuration not stated)	-4	152	i	·	-91	22	1
Cc1nc2ccccc2c(=O)n1-c1ccc(C(=O)O)cc1	·	91	i	·	·	·	0.9
O=C(c1cccc2ccccc12)C1CCCN(Cc2ccon2)C1 (configuration not stated)	·	88	i	·	·	·	0.99
CCCCCc1nc2ccccc2c(=O)n1-c1ccc(Cl)cc1[N+](=O)[O-]	5	96	i	-3.2	-23	78	0.97
Cc1c2cnn(CC(=O)N3CCC4(CC3)OCCO4)c(=O)c2c(C)n1Cc1ccccc1	8	90	i	-1.8	-32	85	0.92

An excerpt, so the mix of outcomes need not match the whole.
